Screening data: PubChem, National Center for Advancing Translational Sciences (NCATS)
TRPML1 ag = activates the human TRPML1 channel; Q9GZU1; TRPML1-expressing cells, Ca2+ dye fluorescence, FDSS; host cell line not named in the record; reference of the full effect not given here; activation, % (concentration not given with the values); 410,000 tested, 0.12% active; AID 624414; in the data active = activation above about 50%; inconclusive = about 30% to 50%; inactive = below about 30%; also: 0% is about no effect; the text of the record puts the active cut at 80%
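TRPML1-DL cells, Tet-induced overnight (~16 h, 37 degrees C), loaded 45-90 min at room temperature with Ca8 no-wash calcium dye plus quencher. FDSS fluorescence: 10 s baseline, compound pin-transfer, 110 s agonist read, then EC80 54-4 (4uM final) and 110 s antagonist read.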
TRPML1 blocker = inhibitors of human TRPML1 channel; 390,000 tested, 0.02% active; activity change, negative = inhibition, % (no concentration beside the values); TRPML1-inducible cells, Ca2+ dye fluorescence, FDSS; hits give low values; inhibition of EC80 agonist-evoked calcium signal; in the data active means activity change below about -50%; inconclusive means about -30% to -50%; inactive means above about -30%;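 also: stimulus is agonist 54-4 at its EC80 concentration; % is scaled to controls: 0 for no effect and ±100 for the full control effect; compound concentration not given in the record; the text of the record puts the active cut at -80%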
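Tet-induced TRPML1-DL cells loaded with Ca8 no-wash calcium dye were read kinetically on FDSS. Compound addition was followed by EC80 agonist 54-4 (4 uM final); inhibition was read over 110 s.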
D2 potentiator = potentiates the human D2 dopamine receptor allosterically | P14416 | DiscoveRx D2 beta-arrestin cells, luminescence, 90 min; 100% = 57 uM dopamine signal | potentiation, % (concentration not given with the values) | 360,000 tested, 0.23% active; active = potentiation of 50% or more; inconclusive = 30% to 50%; inactive = 30% or less;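 also: compound concentration not given in the record; tested on top of an EC20 dose of dopamine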
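D2 cells co-treated with compound plus 50 nM dopamine (EC20) for 90 min at 37 deg C to detect potentiation. Beta-arrestin recruitment was read as enzyme-fragment luminescence after 1 h at ambient temperature. Full response was set by 57 uM dopamine.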
Six1-Eya2 inh = blocks human Six1 binding to Eya2. AID 651725. AlphaScreen GST-Six1/His-Eya2 binding, biochemical; hits give low values; control for the full effect not named in the record. 360,000 tested, 0.56% active. activity change, % (no concentration beside the values). Q15475+O00167; in the data active = activity change below about -65%; inconclusive = about -30% to -65%; inactive = above about -30%; also: % is scaled to controls: 0 for no effect and ±100 for the full control effect; compound concentration not given in the record
Target sequence (O00167 whole entry, looked up): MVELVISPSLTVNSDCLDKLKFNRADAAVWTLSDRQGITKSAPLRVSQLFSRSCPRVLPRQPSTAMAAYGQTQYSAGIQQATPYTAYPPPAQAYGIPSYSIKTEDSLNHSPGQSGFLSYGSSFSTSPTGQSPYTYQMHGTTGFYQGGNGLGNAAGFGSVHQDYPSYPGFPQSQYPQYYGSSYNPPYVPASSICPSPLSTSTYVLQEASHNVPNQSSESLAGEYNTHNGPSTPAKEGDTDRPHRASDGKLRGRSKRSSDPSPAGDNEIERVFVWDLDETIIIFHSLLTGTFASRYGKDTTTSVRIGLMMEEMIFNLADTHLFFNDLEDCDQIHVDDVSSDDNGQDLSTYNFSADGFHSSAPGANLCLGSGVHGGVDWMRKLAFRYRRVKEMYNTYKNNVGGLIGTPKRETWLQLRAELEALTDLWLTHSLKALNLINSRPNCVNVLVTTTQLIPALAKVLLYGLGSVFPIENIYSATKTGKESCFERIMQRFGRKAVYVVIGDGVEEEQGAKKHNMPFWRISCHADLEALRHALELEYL
Target sequence (Q15475 whole entry, looked up): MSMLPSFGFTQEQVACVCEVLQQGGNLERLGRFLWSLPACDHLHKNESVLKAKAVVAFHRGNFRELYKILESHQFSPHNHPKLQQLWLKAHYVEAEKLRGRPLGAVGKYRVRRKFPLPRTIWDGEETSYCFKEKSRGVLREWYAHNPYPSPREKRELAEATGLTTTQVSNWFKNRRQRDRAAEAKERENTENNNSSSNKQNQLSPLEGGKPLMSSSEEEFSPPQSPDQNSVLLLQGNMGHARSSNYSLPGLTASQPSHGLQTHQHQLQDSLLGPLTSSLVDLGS
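GST-Six1 + His-Eya2 (5X stock: 250/500 nM); Tris pH 8.0, 300 mM NaCl, 0.05% BSA, 0.02% Tween 20; GSH donor/Ni acceptor beads; 1 h 37 °C dark; AlphaScreen readout.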
CtBP-E1A inh = inhibitors of CtBP/E1A interaction; AlphaScreen GST-E1A/His-CtBP binding, 1536-well; hits give low values; control for the full effect not named in the record; activity change, % (no concentration beside the values); 340,000 tested, 0.49% active; in the data active means activity change below about -65%; inconclusive means about -30% to -65%; inactive means above about -30%; also: % is scaled to controls: 0 for no effect and ±100 for the full control effect; compound concentration not given in the record
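GST-E1A and His-tagged CtBP (125 nM each as 5X stock) were preincubated with pin-transferred compound for 2 h at 37 °C in the dark, then glutathione donor and nickel acceptor beads were added for 1 h before AlphaScreen reading.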
TRPV1 PAM = enhances activation of the human vanilloid receptor TRPV1. TRPV1-expressing cells, Fluo-8 calcium influx, capsaicin EC20 potentiation; host cell line not named in the record; control for the full effect not named in the record. potentiation, % at 8.33 µM. 320,000 tested, 0.02% active; active means potentiation above 80%; inconclusive means 30% to 80%; inactive means below 30%; also: 0% is about no effect
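TRPV1-expressing cells were cultured overnight at 35.5C and loaded with Fluo-8 calcium dye for 40 to 90 min at room temperature. After a 10 s baseline, compound was added and calcium influx was read kinetically for 3 min (ex 480/em 520 nm).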
An asterisk follows results filed as active; ? = inconclusive; · = no result given; & = joins results of further samples.

SMILES | TRPML1 ag | TRPML1 blocker | D2 potentiator | Six1-Eya2 inh | CtBP-E1A inh | TRPV1 PAM
COc1cc(OC)c(OC)cc1/C=N/NC(=O)c1cccc(S(=O)(=O)N2CCOCC2)c1 | -0.4 | 13 | -5 | -6 | -9 | -8
Cc1cccc(C)c1NC(=O)C1c2ccccc2OCC(=O)N1CCc1c[nH]c2ccccc12 (stereo unspecified) | -0.1 | · | · | 0 | 1 | ·
Cc1ccccc1NC(=O)C1CC(Cl)=CCC1C(=O)O (stereo unspecified) | -0.7 | 0 | -11 | 7 | 1 | -7
O=C(COC(=O)c1ccc(F)c(S(=O)(=O)N2CCOCC2)c1)NC1CCCCC1 | 0.1 | -2 | -2 | 3 | -2 | -6
Cc1nc2c(OCc3ccc(Cl)cc3)cccn2c1N(C)Cc1cccs1 | 1.4 | 39 | -27 | -5 | -8 | ·
COc1ccc(CCNC(=O)c2ccc(OC)c(OC)c2)cc1OC | 0.2 | -10 | -1 | -10 | -24 | 3
CCn1c(SCC(=O)Nc2ccc(OC)cc2)nc2nc3c(cc2c1=O)COC(C)(C)C3 | -0.8 | -9 | -15 | -1 | · | 9
CCCCCCC(=O)Nc1ccc(Cl)cn1 | 1.2 | -6 | -11 | 16 | 16 | -15
Cc1ccc2cc3cc(C(=O)NCc4ccc5c(c4)OCO5)oc3nc2c1 | 0.8 | -13 | -7 | -4 | -7 | -4
O=C(CCCOc1ccc(Cl)cc1Cl)N/N=C/c1ccco1 | 1.9 | -11 | -15 | 2 | 4 | 22
CC(C)(C)C1=NN(C(=O)c2ccccc2)C(O)(C(C)(C)C)C1 (stereo unspecified) | 0.1 | -2 | -15 | -4 | 4 | 9
Cc1ccc2cc(CN(CC(C)C)S(=O)(=O)c3cccc4nonc34)c(=O)[nH]c2c1 | 0.0 | 19 | -5 | 4 | 2 | 13
CCc1nc2c(OCc3ccccc3)cccn2c1N(C)C(=O)c1ccc2c(c1)OCO2 | -1.3 | · | -1 | -11 | -4 | ·
Cc1ccc(C(=O)C2CCN(CC(=O)Nc3ccc(N(C)C)cc3)CC2)cc1 | 0.0 | -3 | -19 | ? | ? | -4
CCOc1ccc(/C=C(\C#N)C(=O)c2c(C)[nH]c3ccccc23)cc1OC | -0.1 | 8 | 1 | -9 | -16 | 15
CC(C)CC(=O)Nc1ccc(C(=O)NN2C(=O)c3ccccc3C2=O)cc1 | 0.5 | 3 | -11 | 3 | 15 | 1
O=C(O)c1cc(S(=O)(=O)NCCN2CCNC2=O)ccc1O | 0.0 | 23 | 3 | 2 | -10 | 4
COC(=O)[C@H](CC(C)C)N(Cc1ccccc1)S(=O)(=O)N(Cc1ccc(OC)cc1)[C@@H](CC(C)C)C(=O)OC | 2.6&1.3 | 5 | -5 | -4 | 5 | ·
Cc1cc(C)n(C(=O)CCCCCCCCC(=O)n2nc(C)cc2C)n1 | 0.4 | 9 | -3 | 6 | 0 | -2
Cc1nc2ncnn2c(C)c1Cc1cccc(F)c1 | -1.0 | 10 | -7 | 4 | 9 | 6
Cc1[nH]c2ccccc2c1C(=O)C(=O)N1CCCc2ccccc21 | 1.6 | -21 | -4 | 3 | -1 | ?
COc1ccc(Cc2c(-c3ccc(C)cc3)nc3cc(C)c(Br)c(C)n23)c(C)c1 | -0.2 | 37 | -8 | 6 | 4 | ·
CC(=O)OCC(=O)C1(O)CCC2C3CCC4=CC(=O)CCC4(C)C3(Cl)C(O)CC21C (stereo unspecified) | 0.9 | -4 | -5 | 12 | 12 | ·
COc1cc(/C=N/NC(=O)C(=O)N2CCCC2)ccc1O | 2.8 | 6 | 7 | 0 | 8 | -4
COc1ccc(/C(N)=N/OC(=O)c2ccc(C)c([N+](=O)[O-])c2)cc1OC | 0.7 | 5 | 2 | -1 | 2 | -4
Cc1[nH]c2ccccc2c1C(=O)CSc1ncn[nH]1 | 0.1 | 28 | 4 | -21 | -21 | 0
O=C1NC[C@H](CCCCN2C[C@H](Cc3ccc(O)cc3)N(CCc3ccccc3)C(=O)C2=O)N(CCc2ccccc2)C1=O | -0.7 | · | · | 4 | 2 | ·
CC12CCC(=O)N1C(C(=O)Nc1nc(-c3ccc(F)cc3)cs1)CS2 (stereo unspecified) | 0.9 | -22 | -66 | 4 | 0 | -8
CC(C)c1ccccc1OCCCN1CCCC1 | 0.3 | 40 | -7 | 3 | · | -1
CCc1nc2c(OCC(=O)c3ccc(Cl)cc3Cl)cccn2c1N(C)C(=O)COc1ccccc1 | -0.5 | · | 0 | -11 | 1 | ·
Clc1ccccc1-c1nnc2sc(C3COc4ccccc4O3)nn12 (stereo unspecified) | 5.6 | 6 | -7 | -8 | -14 | -12
CC(=O)N1CCN(S(=O)(=O)c2ccc3c(c2)CCC(=O)N3)CC1 | -0.3 | -10 | -4 | -1 | 4 | 14
O=S(=O)(/C=C/c1ccccc1)Oc1ccccc1 | 14 | 17 | 3 | -11 | ? | -15
Cc1csc(SC(C)C(=O)NCC2CCCO2)n1 (stereo unspecified) | 1.7 | -19 | -27 | 2 | 9 | 0
Oc1c(C(Nc2ccccn2)c2ccccn2)ccc2cccnc12 (stereo unspecified) | -1.7 | 0 | -9 | -95* | -95* | -12
CC(Oc1ccccc1Cl)C(=O)Nc1ccc(S(=O)(=O)Nc2nccs2)cc1 (stereo unspecified) | 0.6 | 18 | -3 | -12 | -23 | 10
COc1ccc2[nH]c(=O)c(CN(Cc3cccnc3)Cc3nnnn3CC3CCCO3)cc2c1 (stereo unspecified) | 1.3 | -14 | -6 | 6 | 2 | 1
Clc1ccc2nc(-c3ccccc3)nc(C(Cl)Cl)c2c1 | 0.6 | -14 | -1 | 15 | 41 | 11
COC(=O)CCCC1=CC2=C(c3ccccc3)C(=O)C(C)(OC(=O)C3CCCC3)C(=O)C2=CN1c1ccc(OC)cc1 (stereo unspecified) | -0.6 | 21 | -2 | -12 | -9 | -18
COc1ccc(NC(=S)N2CCCC2c2ccc(OC)c(OC)c2)cc1 (stereo unspecified) | 0.2 | -12 | 17 | 12 | 0 | 1
CCn1cc(CN2CCc3c([nH]c4ccccc34)C2c2ccc(F)c(OC)c2)c(C)n1 (stereo unspecified) | 0.0 | 15 | -3 | -17 | -3 | -5
Cc1noc(C)c1Cn1c(C)c(C(=O)NCc2ccc3c(c2)OCCO3)sc1=O | -0.6 | · | 3 | -6 | -1 | ·
Cc1ccccc1CS(=O)(=O)c1cn(CC(=O)N2CCOCC2)c2ccccc12 | 0.6 | -9 | 14 | -1 | 3 | 10
CN(C)c1nc2n(c(=O)n1)CCO2 | -0.1 | 0 | 5 | 3 | -4 | -15
COc1ccc(-c2cc(C(F)(F)F)nc(SCC(=O)Nc3cc(C)on3)n2)cc1 | -0.4 | 19 | 18 | 9 | 2 | -9
O=C(Cn1nc(-c2ccccc2)ccc1=O)NCCN1CCN(c2cccc(Cl)c2)CC1 | 0.1 | 27 | -14 | -8 | -11 | 6
COc1ccc2c(ccc[n+]2CC(=O)c2ccc(C)cc2)c1 | 0.8 | 22 | -18 | 2 | 1 | 1
CC(NC(=O)Cc1cccs1)C(c1cccs1)N1CCN(c2ccccc2F)CC1 (stereo unspecified) | 4.5 | 36 | -11 | -4 | 3 | 15
O=c1[nH]nc(Br)c(=O)n1C(c1ccccc1)c1ccccc1 | 10 | -17 | -14 | -15 | -1 | ·
COC(=O)c1ccc(Nc2cc(C)nc3ccccc23)cc1 | 0.3 | 13 | -2 | -2 | -13 | ·
Cc1cc(N2CCN(S(=O)(=O)c3ccc(C)c(C)c3)CC2)c2ccccc2n1 | 1.0 | -9 | -4 | -6 | -8 | 13
CC1(C(=O)Nc2ccc(F)cc2F)CCN1C(=O)Cc1ccccc1 (stereo unspecified) | -0.5 | · | -3 | -6 | -1 | ·
Cc1ccc(-c2nnc(N3CCCCCC3)c3ccccc23)cc1 | -0.5 | 60 | -2 | -17 | -10 | -9
Cc1csc(NC(=O)Nc2ccccc2[N+](=O)[O-])n1 | 0.7 | -4 | 11 | -25 | -7 | -2
c1ccc(Oc2nc(NCc3ccco3)nc(NCc3ccco3)n2)cc1 | 2.2 | 15 | -16 | -1 | -13 | -6
CC(C)OC(=O)c1c(NC(=O)CCC(=O)O)sc2c1CCCCC2 | 0.3 | 5 | -10 | 1 | 4 | -1
Cc1nc2ccccn2c1C(=O)N/N=C/c1ccc([N+](=O)[O-])cc1 | 2.2 | -12 | 0 | 2 | 3 | 1
N#C/C(=C\c1ccc(/C=C(/C#N)c2nn(CCO)c(N)c2C#N)cc1)c1nn(CCO)c(N)c1C#N | 0.0 | -22 | -10 | 1 | -3 | 17
CCOC(=O)CCc1c(C)c2ccc(O)cc2oc1=O | 0.4 | -12 | 4 | -5 | 2 | -12
CC(C)CC(=O)Nc1nnc(SCC(=O)NCC2CCCO2)s1 (stereo unspecified) | -0.2 | -2 | -16 | -3 | 9 | -9

Next part.
SMILES | TRPML1 ag | TRPML1 blocker | D2 potentiator | Six1-Eya2 inh | CtBP-E1A inh | TRPV1 PAM
Cc1csc(NC(=O)C2=NN(c3ccccc3)C(=O)CC2)n1 | 1.2 | -8 | 1 | -1 | 8 | 10
Cc1ccc(S(=O)(=O)N2CCCCC2)cc1NC(=O)C1CC1 | 0.4 | -5 | -21 | 5 | -11 | ·
CCOC(=O)c1[nH]c(C)c(C(=O)Nc2ccc(C)c(F)c2)c1C | 0.9 | 0 | -3 | -1 | 3 | -27
CCSc1nnc(CNC(=O)c2ccccc2F)n1-c1ccccc1OC | 1.9 | -2 | 1 | -2 | · | 0
c1ccc(-c2nnc(SCc3nnc(-c4cccs4)o3)o2)cc1 | 0.0 | -10 | 0 | -6 | 4 | 1
C/C(=N\NS(=O)(=O)c1ccc(C)c([N+](=O)[O-])c1)c1cc2ccccc2o1 | 0.6 | -2 | -25 | -3 | -11 | 4
CN(CC(=O)NC1CCN(Cc2ccccc2)CC1)S(=O)(=O)c1ccc(Br)s1 | 0.2 | 6 | -13 | 0 | -2 | 0
O=S(=O)(NC1CCCC1)c1ccccc1Br | 1.8&0.6 | 2&-8 | -4 | 6 | 11 | -3
CC12CCC(=O)N1C(C(=O)Nc1cc(C(F)(F)F)ccc1N1CCOCC1)CS2 (stereo unspecified) | -0.2 | 5 | -4 | 6 | -3 | -14
Cc1cc(C)c2c(N)c(C(=O)N3CCCCCC3)sc2n1 | 0.4 | 5 | -5 | -2 | 1 | 25
COc1ccc(NC(=O)COC(=O)CCc2nc3ccccc3c(=O)[nH]2)cc1Cl | -0.2 | -18 | -15 | 7 | · | ·

3 compounds drawn at random from the list so far:
SMILES | TRPML1 ag | TRPML1 blocker | D2 potentiator | Six1-Eya2 inh | CtBP-E1A inh | TRPV1 PAM
Cc1cc(C)n(C(=O)CCCCCCCCC(=O)n2nc(C)cc2C)n1 | 0.4 | 9 | -3 | 6 | 0 | -2
Cc1csc(NC(=O)C2=NN(c3ccccc3)C(=O)CC2)n1 | 1.2 | -8 | 1 | -1 | 8 | 10
O=S(=O)(/C=C/c1ccccc1)Oc1ccccc1 | 14 | 17 | 3 | -11 | ? | -15

No enrichment for hits (roughly 0.95% active in at least one column).
